Beta apoptosis = beta cell apoptosis inhibition; INS-1E cytokine-induced death, ATP luminescence, 48 h; percent of positive-control rescue, neutral wells zero; protection from apoptosis, % (test concentration not listed); 300,000 compounds, 0.8% hits; AID 435005;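 active = all replicates at 75% or more, or half of them and the mean; inconclusive = half reach 75% but not the mean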;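 also: 0% = cytokine-treated negative control wells and 100% = positive control rescue; higher means more ATP so stronger rescue from cytokine killing; wells of about 40 µL received 100 nL stock; the first replicate is given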
Ecoli rRNA inh = selective bacterial rRNA inhibition in E. coli | E. coli WT GFP vs humanized-ribosome RFP mutants, fluorescence, 24 h; hits give low values; DMSO median 0, no signal -100 | GFP signal change (wild-type ribosome), % (no concentration beside the values) | 350,000 compounds, 1.6% hits;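 active = significant combined selectivity score with lowered wild-type GFP, culture density cut under 30%, mutant RFP and density less affected; inactive = any of these conditions unmet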; also: one replicate is shown; some compounds called inactive have numbers as strong as hits
Calb FLC = affects C. albicans growth with fluconazole; 300,000 compounds, 0.57% hits; growth inhibition, % (test concentration not listed); C. albicans CaCi-2 (fluconazole-resistant clinical isolate) + fluconazole, Alamar Blue growth, 48 h;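 active = most replicates above 75%; inconclusive = exactly half above 75%; inactive = most below 75%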;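 also: all wells also contain fluconazole at 8 µg/ml as a sub-toxic cotreatment; 0% = median of DMSO wells and 100% = median of geldanamycin control wells; wells of about 8 µL received 7.5 nL stock; the first replicate is given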
AF4-AF9 inh = inhibitors of human MLL-AF4/AF9 interaction. P42568. AlphaScreen, biotin-AF4 peptide binding to FLAG-AF9. inhibition, % at 10 µM. 350,000 compounds, 0.47% hits;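 active = every replicate reaching a set inhibition limit, whatever the replicate mean, cut at about 25% in these data; inconclusive = mean inhibition reaches that limit but some replicates miss it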;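 also: 0% = plate neutral control median and 100% = total signal loss; the record names both 10 and 1 µM as test concentration; the first replicate is given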
Target sequence (P42568 whole entry, looked up): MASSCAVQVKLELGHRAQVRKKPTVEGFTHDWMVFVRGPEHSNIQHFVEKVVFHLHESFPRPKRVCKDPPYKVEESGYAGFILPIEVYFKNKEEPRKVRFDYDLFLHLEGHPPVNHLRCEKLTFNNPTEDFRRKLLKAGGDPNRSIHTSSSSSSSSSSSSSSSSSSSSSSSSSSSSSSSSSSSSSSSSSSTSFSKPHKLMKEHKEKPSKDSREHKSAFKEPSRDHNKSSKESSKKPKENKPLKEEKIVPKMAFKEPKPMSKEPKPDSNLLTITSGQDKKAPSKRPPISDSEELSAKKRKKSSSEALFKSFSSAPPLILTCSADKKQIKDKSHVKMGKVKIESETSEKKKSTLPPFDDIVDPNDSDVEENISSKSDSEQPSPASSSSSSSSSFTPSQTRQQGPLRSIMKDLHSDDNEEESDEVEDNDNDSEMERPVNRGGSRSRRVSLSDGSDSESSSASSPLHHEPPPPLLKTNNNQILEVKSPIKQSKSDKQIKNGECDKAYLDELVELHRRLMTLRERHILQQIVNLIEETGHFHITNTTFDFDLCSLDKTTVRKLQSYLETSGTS
A1 inh = inhibitors of the anti-apoptotic protein A1, read as caspase activation; MEF A1-2A-BIM cells, Caspase-Glo 3/7 luminescence, 3 h; percent of clofoctol response, vehicle zero; caspase activation, % (concentration not given with the values); 330,000 compounds, 0.066% hits;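 active = over half of replicate activation scores above 10%, or exactly half above 10 with the replicate mean above 10; inconclusive = replicate mean below 10 yet half the replicates above 10; inactive = over half of replicates below 10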;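 also: wells of about 30 µL received 50 nL stock; many hits fall short of the cut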
T cruzi inh = blocks replication of Trypanosoma cruzi; T. cruzi beta-gal in NIH3T3, luminescence, 90 h; inhibition, % (test concentration not listed); 300,000 compounds, 1.4% hits; AID 1885;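 active = mean inhibition across valid replicates above about 55%, limit read from the data; inconclusive = mean below that limit but half or more replicates reach it; inactive = mean below it, under half of replicates reach it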;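 also: signal also drops with host cell toxicity which is not excluded here; 0% = plate median of DMSO wells and 100% = zero luminescence signal; higher percent means less beta-gal luminescence so fewer parasites; stock transfer was 50 nL into about 50 µL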
Vif TR-FRET = inhibitors of Vif binding to APOBEC3G peptide, primary screen, biochemical, TR-FRET, GST-Vif 1-94, biotin-A3G peptide, dose response retest (AID 1117319); TR-FRET GST-Vif / biotin-A3G peptide binding; higher % means a stronger effect; test concentration not given here; strong numbers were not always called active; inhibition, %; hits with a dose series show IC50 in µM; 260,000 compounds, 0.57% hits;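 active = above the screen mean plus three standard deviations and confirmed in dose response; inconclusive = results disagree or hit not tested in dose response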;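 also: Vif residues 1-94 fused to GST binding biotinylated APOBEC3G peptide 110-148; 0% = full assay without inhibitor and 100% = GST in place of GST-Vif; retest series ran down from 100 µM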
RanGTP-Imp inh = inhibitors of RanGTP-importin-beta interaction, primary screen, biochemical, FRET, CFP-Ran, YFP-importin-beta, homogeneous; 300,000 compounds, 1.1% hits; inhibition, % (concentration not given with the values); cell-free CFP-Ran/YFP-importin-beta FRET ratio;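 active = most replicates above 15%; inconclusive = exactly half above 15%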;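 also: 0% = DMSO wells and 100% = Ran loaded with GDP instead of GTP; wells of about 40 µL received 100 nL stock; the first replicate is given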
Ecoli rRNA inh OD600 = recorded beside Ecoli rRNA inh, whose call it bears; OD600 change, %; measured here: OD600 growth;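 optical density of the mix in the first replicate; 0 = DMSO median and -100 = no signal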
Ecoli rRNA inh RFP = second read-out of Ecoli rRNA inh, no call of its own (marks repeat the call); RFP signal change, %; measured here: RFP humanized mutant strains;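 first replicate; 0 = DMSO median and -100 = no signal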
Starred values were filed as active, the others as inactive. An excerpt; count on the stated rates, not on these rows.

What do the screens show for `COC(=O)C1=C(c2ccc(F)cc2OCc2ccccc2)C[C@@H]2CC[C@H]1N2C(=O)NCc1ccc(N(C)C)cc1`?
Beta apoptosis: -5; Ecoli rRNA inh: 2; AF4-AF9 inh: 2.6; A1 inh: -0.7; Ecoli rRNA inh OD600: -15; Ecoli rRNA inh RFP: 3.4

How did CN(C)CC1CCCCC1OC(=O)Cc1ccc(Cl)c([N+](=O)[O-])c1 (stereo not drawn) do in these assays?
Beta apoptosis: 2; Ecoli rRNA inh: 3; Calb FLC: 4; AF4-AF9 inh: 0.4; A1 inh: -0.1; T cruzi inh: 1; RanGTP-Imp inh: 0.1; Ecoli rRNA inh OD600: 14; Ecoli rRNA inh RFP: -1.2

How did C/C=C(\C)C(=O)OC1C(C)=C2C(C1OC(=O)CCCCC)C(C)(OC(C)=O)CC(OC(=O)CCC)C1(O)C2OC(=O)C1(C)O (stereo not drawn) do in these assays?
Beta apoptosis: 107*; Calb FLC: 24; A1 inh: 0.3; T cruzi inh: 10; RanGTP-Imp inh: -5.4

How did O=c1nc(/C=C/c2ccc(Cl)cc2Cl)cc(C(F)(F)F)[nH]1 do in these assays?
Beta apoptosis: 6; Ecoli rRNA inh: -13; Calb FLC: 0; AF4-AF9 inh: -0.6; A1 inh: 0.6; T cruzi inh: 15; Vif TR-FRET: -2%; RanGTP-Imp inh: -3.3; Ecoli rRNA inh OD600: -22; Ecoli rRNA inh RFP: 14

What do the screens show for `O=Cc1c(C(=O)O)n(Cc2ccccc2F)c2ccccc12`?
Beta apoptosis: 7; Ecoli rRNA inh: -27; Calb FLC: 10; AF4-AF9 inh: -0.5; A1 inh: 0.0; T cruzi inh: 5; Vif TR-FRET: 3%; RanGTP-Imp inh: -4.4; Ecoli rRNA inh OD600: -41; Ecoli rRNA inh RFP: -5.7

How did CNC(=S)N1CC2CC(C1)c1cccc(=O)n1C2 (stereo not drawn) do in these assays?
Beta apoptosis: 4; Ecoli rRNA inh: 24; Calb FLC: -1; AF4-AF9 inh: 0.5; A1 inh: -0.2; T cruzi inh: -21; Vif TR-FRET: -8%; RanGTP-Imp inh: 0.9; Ecoli rRNA inh OD600: 23; Ecoli rRNA inh RFP: 4.1

What do the screens show for `C=CCN1CCC2(C)c3cc(O)ccc3CC1C2C` (stereo not drawn)?
Ecoli rRNA inh: -1; Calb FLC: -4; AF4-AF9 inh: -21; A1 inh: 0.1; T cruzi inh: -13; RanGTP-Imp inh: 0.3; Ecoli rRNA inh OD600: 3; Ecoli rRNA inh RFP: -0.5

Results for COC(=O)C(O)(c1ccc(NC(=O)c2cccs2)cc1)C(F)(F)F (stereo not drawn) ?
Beta apoptosis: 3; Ecoli rRNA inh: -19; Calb FLC: -18; AF4-AF9 inh: -0.6; A1 inh: -0.8; T cruzi inh: -4; Vif TR-FRET: 5%; RanGTP-Imp inh: -0.7; Ecoli rRNA inh OD600: -16; Ecoli rRNA inh RFP: -3.9

Results for CC(=O)N1N=C2C3CCN(CC3)C2C1c1ccc(Br)cc1 (stereo not drawn) ?
Beta apoptosis: -7; Ecoli rRNA inh: 8; Calb FLC: 2; AF4-AF9 inh: 2.6; A1 inh: 0.4; T cruzi inh: -10; RanGTP-Imp inh: -0.4; Ecoli rRNA inh OD600: -2; Ecoli rRNA inh RFP: -4.8

How did Cc1nnc2ccc(-c3cccc(C(F)(F)F)c3)nn12 do in these assays?
Ecoli rRNA inh: 7; Calb FLC: 4; AF4-AF9 inh: -18; A1 inh: 1.1; T cruzi inh: -6; RanGTP-Imp inh: 0.6; Ecoli rRNA inh OD600: -2; Ecoli rRNA inh RFP: 1.2

Results for CNc1ccc2oc(C[C@H]3O[C@@]4(CC[C@H]3C)O[C@H]([C@H](C)C(=O)c3ccc[nH]3)[C@H](C)C[C@H]4C)nc2c1C(=O)O ?
Beta apoptosis: 109*; AF4-AF9 inh: -3.0; A1 inh: 1.4; T cruzi inh: 28; Vif TR-FRET: inconclusive; RanGTP-Imp inh: -3.8

What do the screens show for `CN(C)CCN(CC1CCCN(Cc2ccccc2F)C1)C(=O)Cc1ccccc1F` (stereo not drawn)?
Beta apoptosis: -1; Ecoli rRNA inh: 3; Calb FLC: -28; AF4-AF9 inh: 3.2; A1 inh: 0.0; T cruzi inh: 50; Vif TR-FRET: -6%; RanGTP-Imp inh: -0.3; Ecoli rRNA inh OD600: 10; Ecoli rRNA inh RFP: -0.3

Results for COc1ccccc1C(=O)Nc1ccc2c(c1)CC1(C(=O)N(C)C(=O)N(C)C1=O)C1CCCN21 (stereo not drawn) ?
Beta apoptosis: 0; Ecoli rRNA inh: 0; Calb FLC: 15; AF4-AF9 inh: 1.3; A1 inh: 1.4; T cruzi inh: 6; RanGTP-Imp inh: -7.4; Ecoli rRNA inh OD600: 5; Ecoli rRNA inh RFP: 2.0

What do the screens show for `Cc1c(Br)c(=O)oc2cc(OCC(=O)N3C[C@H]4C[C@@H](C3)c3cccc(=O)n3C4)ccc12`?
Beta apoptosis: 0; Ecoli rRNA inh: -3; Calb FLC: -6; AF4-AF9 inh: -2.5; A1 inh: -0.8; T cruzi inh: -3; RanGTP-Imp inh: inconclusive; Ecoli rRNA inh OD600: 1; Ecoli rRNA inh RFP: -13

What do the screens show for `CC[C@@H](CO)C1CC2NC3CC4(c5ccccc5N(C)[C@@H]24)C(O)C31` (stereo partly drawn)?
Beta apoptosis: -4; Ecoli rRNA inh: 6; Calb FLC: 6; AF4-AF9 inh: -1.9; A1 inh: 1.3; T cruzi inh: -5; RanGTP-Imp inh: 4.0; Ecoli rRNA inh OD600: 11; Ecoli rRNA inh RFP: 5.3

What do the screens show for `COc1ccc(OC)c(NP(=O)(Oc2ccccc2)Oc2ccccc2)c1`?
Beta apoptosis: 2; Ecoli rRNA inh: -2; Calb FLC: 1; AF4-AF9 inh: -6.4; A1 inh: -0.6; T cruzi inh: -6; Vif TR-FRET: -4%; RanGTP-Imp inh: -4.2; Ecoli rRNA inh OD600: 6; Ecoli rRNA inh RFP: 2.9

Results for CN1CCN(c2ccc(NC(=O)Oc3ccccc3)cc2)CC1 ?
Beta apoptosis: -1; Calb FLC: -2; A1 inh: -0.1; T cruzi inh: 18; Vif TR-FRET: 4%; RanGTP-Imp inh: -3.2

Results for CCOC(=O)c1c(C)n(Cc2ccccc2)c2ccc(O)cc12 ?
Beta apoptosis: 1; Ecoli rRNA inh: -27*; Calb FLC: inconclusive; AF4-AF9 inh: -13; A1 inh: -0.7; T cruzi inh: 7; Vif TR-FRET: 0%; RanGTP-Imp inh: -12; Ecoli rRNA inh OD600: -15*; Ecoli rRNA inh RFP: -6.3*

What do the screens show for `COC(=O)C(O)(c1cn(C)c2ccccc12)C(F)(F)F` (stereo not drawn)?
Beta apoptosis: 0; Calb FLC: -9; A1 inh: 0.8; T cruzi inh: -10; Vif TR-FRET: -2%; RanGTP-Imp inh: -2.6

How did Cc1cccc2c1=NC(=O)/C(=C/c1c(O)[nH]c(=O)[nH]c1=O)C=2 do in these assays?
Beta apoptosis: -3; Calb FLC: 19; A1 inh: 0.4; T cruzi inh: -10; RanGTP-Imp inh: -4.6

What do the screens show for `CCOC(=O)Cn1cc(C(=O)c2ccccc2F)c2ccccc21`?
Beta apoptosis: -5; Calb FLC: 6; A1 inh: 0.4; T cruzi inh: -4; Vif TR-FRET: 23%; RanGTP-Imp inh: 5.0

What do the screens show for `CCOc1ccc(-n2c(O)c(N=Nc3ccc([N+](=O)[O-])cc3)c(=O)[nH]c2=O)cc1`?
Beta apoptosis: -6; Ecoli rRNA inh: 8; Calb FLC: 18; AF4-AF9 inh: -0.8; A1 inh: -0.5; T cruzi inh: 3; Vif TR-FRET: 21%; RanGTP-Imp inh: -0.7; Ecoli rRNA inh OD600: 10; Ecoli rRNA inh RFP: -0.4

How did CC1CN(C)C(C)(C)CC1(O)c1ccccc1 (stereo not drawn) do in these assays?
Beta apoptosis: -6; Ecoli rRNA inh: 0; Calb FLC: -3; AF4-AF9 inh: 3.6; A1 inh: -0.1; T cruzi inh: 6; Vif TR-FRET: 6%; RanGTP-Imp inh: 3.2; Ecoli rRNA inh OD600: 3; Ecoli rRNA inh RFP: -0.1

Results for CN1CCN(Cc2nnc3n2-c2ccc(Cl)cc2C(c2ccccc2)=NC3)CC1 ?
Beta apoptosis: -2; Ecoli rRNA inh: 6; Calb FLC: -4; AF4-AF9 inh: 3.6; A1 inh: -0.7; T cruzi inh: -8; Vif TR-FRET: -2%; RanGTP-Imp inh: -0.9; Ecoli rRNA inh OD600: 8; Ecoli rRNA inh RFP: -3.3

What do the screens show for `O=c1[nH]c(=S)n(-c2ccc(Cl)cc2)c(O)c1/C=N/N1CCOCC1`?
Beta apoptosis: -4; Calb FLC: -4; AF4-AF9 inh: -6.9; A1 inh: 1.6; Vif TR-FRET: 14%; RanGTP-Imp inh: -2.9

Results for Cc1cc(=O)oc2cc(OCC(=O)N3CCN(Cc4ccccc4)CC3)ccc12 ?
Beta apoptosis: -4; Ecoli rRNA inh: -6; AF4-AF9 inh: -1.0; A1 inh: 1.1; Vif TR-FRET: -2%; Ecoli rRNA inh OD600: -1; Ecoli rRNA inh RFP: 11

Results for CCC(C)n1c(O)c(/C=N/NC(=O)c2ccncc2)c(=O)[nH]c1=S (stereo not drawn) ?
Beta apoptosis: -2; Ecoli rRNA inh: -8; Calb FLC: -18; AF4-AF9 inh: -0.1; A1 inh: 2.9; T cruzi inh: 9; RanGTP-Imp inh: -1.9; Ecoli rRNA inh OD600: -20; Ecoli rRNA inh RFP: 0.3

How did C[C@]12CC[C@H](O)CC1=CCC1C2CC[C@@]2(C)C1CC[C@@H]2OCc1ccccc1 (stereo partly drawn) do in these assays?
Beta apoptosis: -2; Ecoli rRNA inh: 17; AF4-AF9 inh: -3.2; A1 inh: 0.2; Vif TR-FRET: 1%; Ecoli rRNA inh OD600: 2; Ecoli rRNA inh RFP: 4.2

Results for N#Cc1cc2c(nc1SCC(=O)Nc1cc(Cl)ccc1Cl)C1CCN2CC1 ?
Beta apoptosis: 13; Calb FLC: 34; A1 inh: -0.6; T cruzi inh: 20; Vif TR-FRET: -10%; RanGTP-Imp inh: 11

How did COC(=O)C1=C(c2ccc(S(C)(=O)=O)cc2)C[C@@H]2CC[C@H]1N2C(=O)N1CCOCC1 do in these assays?
Beta apoptosis: 1; Ecoli rRNA inh: 6; Calb FLC: -8; AF4-AF9 inh: -3.9; A1 inh: 0.8; T cruzi inh: 3; RanGTP-Imp inh: -3.5; Ecoli rRNA inh OD600: 8; Ecoli rRNA inh RFP: -3.4

What do the screens show for `Cc1cc(C)n2nc(SC(C)C(=O)N3CCC4(CC3)OCCO4)nc2n1` (stereo not drawn)?
Beta apoptosis: -5; Calb FLC: -3; A1 inh: 0.3; T cruzi inh: 9; Vif TR-FRET: 10%; RanGTP-Imp inh: -1.2

High-throughput results (PubChem)
